Source: PubChem BioAssay
Measles inh – inhibitors of measles virus growth in infected cells | 33,000 tested, 0.1% active | z-score (test concentration not listed) | AID 745 | infected Vero cells, GFP fluorescence, 64 h; active compounds read low;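 active means z-score under -3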;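 further: score is relative to mean and SD of the compound wells of a plate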
Numbers without * were called inactive. Not all compounds are listed; the hit share may differ from the screen's.

structure | Measles inh
O=C(NCc1ccccc1)c1ccc(CN(c2ccccc2)S(=O)(=O)c2ccccc2)cc1 | 0.43
CCOC(=O)c1c(C)oc2cc(Br)c(OC(=O)c3ccco3)cc12 | -0.51
COc1ccc(C)c(CN(C)C)c1 | -0.35
Cc1cc(C)c(C#N)c(SCc2ccc(Br)cc2)n1 | 0.68
Cc1ccc(CNC(=O)c2ccc(Cn3c(=O)c4ccccc4n(CC(=O)c4ccccc4)c3=O)cc2)cc1 | -0.14
C=CCN(c1ccccc1)C(C(=O)NC1CCCC1)c1ccc(Cl)cc1 (centres undefined) | 0.75
O=C(CCCCn1c(=O)c2ccccc2n(Cc2ccc(Cl)cc2)c1=O)NC1CCCC1 | 0.06
CN1CCc2c(sc(N)c2C(N)=O)C1 | 0.63
CC(C)NC(=O)CCNC(=O)Cn1cnc2sc3c(c2c1=O)CCCC3 | -1.56
COc1ccccc1-c1nc(-c2ccc(NC(=O)c3ccncc3)cc2)no1 | -0.02
Oc1ccc(Cl)cc1C1=Nc2ccccc2N=C(c2ccco2)C1 | 0.44
O=C(Nc1nccs1)c1ccc2c(c1)C(=O)N(c1ccccn1)C2=O | -0.59
Cc1ccc(-n2nc3c(c2NC(=O)c2ccccc2Cl)CSC3)c(C)c1 | 0.52
N#Cc1c(NC(=O)c2cnn3c(C(F)(F)F)cc(-c4ccccc4)nc23)sc2c1CCCC2 | 0.08
CC(C)(CC(=O)NCCc1ccc(Cl)cc1)CC1=NS(=O)(=O)c2ccccc2N1 | 0.77
Cc1cc(C)c(S(=O)(=O)N(C(=O)c2ccncc2)c2ccc3oc4c(c3c2)CCCC4)c(C)c1 | -0.42
COc1ccc(C2C(C(=O)N3CCN(c4ccccc4)CC3)c3cc(OC)c(OC)cc3C(=O)N2C)cc1 (centres undefined) | -0.5
Cc1ccc2c(c1)c1c(n2C)C(C(N)=O)CCC1 (centres undefined) | -0.57
CC(C)CCNC(=O)Cc1ccc(Nc2nc(=S)[nH]c3ccccc23)cc1 | 0.32
CCOc1ccc2sc(NC(=O)c3cc4ccccc4oc3=O)nc2c1 | 0.2

Overlap with the part before: 5 entries, then new ones.
structure | Measles inh
Cc1cc(C)c(S(=O)(=O)N(C(=O)c2ccncc2)c2ccc3oc4c(c3c2)CCCC4)c(C)c1 | -0.42
COc1ccc(C2C(C(=O)N3CCN(c4ccccc4)CC3)c3cc(OC)c(OC)cc3C(=O)N2C)cc1 (centres undefined) | -0.5
Cc1ccc2c(c1)c1c(n2C)C(C(N)=O)CCC1 (centres undefined) | -0.57
CC(C)CCNC(=O)Cc1ccc(Nc2nc(=S)[nH]c3ccccc23)cc1 | 0.32
CCOc1ccc2sc(NC(=O)c3cc4ccccc4oc3=O)nc2c1 | 0.2
CCCCN(C)CCNS(=O)(=O)c1ccc2c(c1)oc(=O)n2C | -1.41
COC(=O)c1ccc(OCC(O)Cn2c[n+](C)c3cc(C)c(C)cc32)cc1 (centres undefined) | -0.03
Cc1cccn2c(=O)c3cc(C(=O)NC4CCCCC4)c(=N)n(CCc4ccccc4)c3nc12 | 0.86
COc1ccc(OCC(=O)N(c2ccccc2)C(C)C)cc1 | -0.57
COc1ccc(N2C(=O)CSC2c2cccc(Oc3ccccc3)c2)cc1Cl (centres undefined) | -0.68
COc1ccc(NC(=O)c2cc(-c3ccc(Br)cc3)nc3c(C)cccc23)cc1 | 0.04
CCc1ccc(NC(=O)c2cc3nc(-c4cccs4)cc(C(F)(F)F)n3n2)cc1 | 1.56
COc1ccc(C2CC(C(F)(F)F)n3ncc(C(=O)NCc4ccccc4Cl)c3N2)cc1OC (centres undefined) | 0.53
COC(=O)c1cc(NC(=O)c2ccc(N3CC4CC(C3)c3cccc(=O)n3C4)c(N)c2)cc(C(=O)OC)c1 (centres undefined) | -1.59
CCn1c(COc2ccccc2C)nc2ccccc21 | -0.28
CCOc1ccc(S(=O)(=O)Nc2cccc([N+](=O)[O-])c2)c2cccnc12 | 0.4
CC(=O)c1ccc(C)cc1OC(=O)c1ccco1 | 0.76
CN(C)c1ccc(C=Nc2ccc(C(=O)O)cc2)cc1 | 0.1
N=c1c(C(=O)NCc2ccccc2)cc2c(=O)n3ccccc3nc2n1CC1CCCO1 (centres undefined) | -0.96
Cc1ccc(-n2nnnc2SCCC#N)cc1Cl | 0.58
CN1C(=S)SC(N2OC3C(=O)N(c4ccccc4)C(=O)C3C2c2cccc([N+](=O)[O-])c2)C1(C)C (centres undefined) | -0.1
Cc1ccccc1N(CCN1C(=O)c2cccc3c(N4CCCCC4)ccc(c23)C1=O)C(=O)c1ccc(S(=O)(=O)N(C)C)cc1 | 4.82
Cc1ccc(-c2ccc(=O)n(CC(=O)NCCN(C)C)n2)cc1 | 0.76
COc1cccc2c1OC(c1ccc3c(c1)OCO3)C([N+](=O)[O-])=C2 (centres undefined) | -0.56
O=C(O)CSc1cc(NS(=O)(=O)c2ccccc2)c2ccccc2c1O | -0.07

In another format: entries from further up.
Measles inh	smiles
-1.41	CCCCN(C)CCNS(=O)(=O)c1ccc2c(c1)oc(=O)n2C
-0.03	COC(=O)c1ccc(OCC(O)Cn2c[n+](C)c3cc(C)c(C)cc32)cc1 (centres undefined)
0.86	Cc1cccn2c(=O)c3cc(C(=O)NC4CCCCC4)c(=N)n(CCc4ccccc4)c3nc12
-0.57	COc1ccc(OCC(=O)N(c2ccccc2)C(C)C)cc1

(list continues)
structure | Measles inh
CCc1cc2c(C)cc(=O)oc2cc1OCC(=O)c1ccc(C)cc1 | 1.45
O=C(Oc1ccccc1)OC1CCS(=O)(=O)C1 (centres undefined) | -0.62
CN(C)c1ccc(-c2nc3ccccn3c2N=Cc2ccc(Cl)c([N+](=O)[O-])c2)cc1 | -0.15
C=C(C)Cn1c(SC)nc2sc3c(c2c1=O)CCC(C(C)(C)C)C3 (centres undefined) | -0.4
COc1ccc(N2CCN(Cc3nc4ccccc4c(=O)[nH]3)CC2)cc1 | 0.79
COc1ccc(CN2C(=O)CN(C3CCCCCC3)C(=O)C2c2ccc(OC)cc2)cc1 (centres undefined) | 0.52
CCOC(=O)c1sc(NC(=O)c2ccc(S(=O)(=O)N3CC4(C)CC3CC(C)(C)C4)cc2)c(C)c1C (centres undefined) | 0.24
COCCNC(=O)CCn1nc(-c2ccc(Cl)cc2)c2ccccc2c1=O | -0.37
Cc1cc(OCC(=O)N2CCN(c3ccc([N+](=O)[O-])cc3)CC2)cc(C)c1Cl | -0.2
C=CCSc1nnc2c(n1)OC(C=Cc1ccco1)Nc1ccc(Br)cc1-2 (centres undefined) | 1.04
CCSc1nnc(N2C(=O)c3ccc(C(=O)c4ccc(C(=O)O)cc4)cc3C2=O)s1 | 1.29
CCN(CC)CCNC(=O)CCN1C(=O)COc2ccc(C)cc21 | 0.11
O=C(Nc1ccc(NC(=O)c2ccc(-c3cccc([N+](=O)[O-])c3)o2)cc1)c1ccco1 | -0.97
O=S(=O)(Nc1ccccc1)c1ccccc1 | 0.66
CCCC(=O)Oc1c(Sc2ccc(C)cc2)c(C)nn1-c1ccccc1 | 0.26
CC1=CC(c2ccccc2)n2c(nc3ccccc32)N1 (centres undefined) | 0.59
CC(=O)C1=NN(c2ccccc2)C(c2c[nH]c3ccccc23)N1c1ccc(F)cc1 (centres undefined) | -0.33
CCc1ccc(C2CC(c3ccc(OC)c(OC)c3)=NN2S(C)(=O)=O)cc1 (centres undefined) | 1.23
N=c1n(CCO)c2ccccc2n1Cc1ccccc1F | -0.11
Cc1nc(SCC(=O)NC(C)(C)C)c(C#N)c(C)c1C | -0.47
CC(C)C1Nc2c(C(=O)c3ccccc3)cc(Cl)cc2C2C=CCC21 (centres undefined) | -0.64
C=CCNC(=O)c1sc(=S)n(-c2ccc(OCC)cc2)c1N | 0.27
COc1ccc(OCC(=O)N2CCN(C(=O)c3cc(OC)cc(OC)c3)CC2)cc1 | -1.49
CCCCCOc1ccc(NC2=C(N)C(=O)c3ccccc3C2=O)cc1 | 0.43
O=C1C(c2ccccc2)N=C2c3ccccc3N=C(SCc3cccc(F)c3)N12 (centres undefined) | -0.47
CCCc1n(CC(O)COCc2ccccc2)c2ccccc2[n+]1C (centres undefined) | 0.47
O=C(CNc1ccccc1-c1nc2ccccc2[nH]c1=O)NC1CCCCC1 | 1.52
O=C(NCc1cccs1)c1cc2n(n1)C(C(F)(F)F)CC(c1ccco1)N2 (centres undefined) | 0.37
CCOc1ccc(S(=O)(=O)Nc2nc3c(C)cccc3s2)c2cccnc12 | -0.86
C=CCN1C(=O)c2ccccc2Sc2ccc(C(=O)N3CCC(C(N)=O)CC3)cc21 | -1.17
O=C(NCCCN1CCc2ccccc2C1)c1cc(=O)[nH]c2ccc(S(=O)(=O)N3CCCCCC3)cc12 | -0.33
O=C1OC(NC(=O)c2ccccc2)C(Nc2ccc(O)cc2)=C1Cl (centres undefined) | -1.91
CCN(CC)S(=O)(=O)c1ccc(C(=O)Nc2nc3c(s2)C(=O)CC(C)(C)C3)cc1 | -0.08
COc1ccc(Cc2cnc(NC(=O)COc3cccc(C(F)(F)F)c3)s2)cc1 | 0.3
C=CCN1C(=O)C(CC(=O)Nc2ccc(C)cc2)SC1=Nc1c(C)n(C)n(-c2ccccc2)c1=O (centres undefined) | 0.08
Cc1ccc(C(=O)N2CCN(Cc3ccc4c(c3)OCO4)CC2)cc1C | 0.5
COc1ccc(C2N(C(C)=NS(=O)(=O)c3ccc(C)cc3)CCN2S(=O)(=O)c2ccc(C)cc2)cc1 (centres undefined) | -0.27
O=[N+]([O-])c1ccc(-c2nc(NCc3ccco3)c3ccccc3n2)cc1 | -0.8
CC(=O)C1=C(O)C(=O)N(Cc2cccnc2)C1c1ccc(Br)cc1 (centres undefined) | -0.94
CSc1ccc(S(=O)(=O)NCCOc2ccccc2)cc1 | -0.41
Cc1ccc(Cl)cc1N1CCN(S(=O)(=O)c2ccc3nc(-c4ccccc4)[nH]c3c2)CC1 | -0.31
CCCOC(=O)c1sc2nc3c(c(-c4ccco4)c2c1N)CCCC3 | -0.02
O=C(Nc1ccc(Cl)cc1)c1ccc(N2CC3CC(C2)c2cccc(=O)n2C3)c(NC(=O)c2cccc(C(F)(F)F)c2)c1 (centres undefined) | 1.86
CC(=O)N1CCc2cc(Br)cc(S(=O)(=O)CCC(=O)Nc3ccc(Br)cc3C)c21 | 0.76
CCS(=O)(=O)N1CCC(C(=O)NC2CCCC2)CC1 | -0.54
CCN1CCN(c2ccc(Nc3ccnc4cc5ccccc5cc34)cc2)CC1 | -0.32
COc1ccccc1C1NC(=O)c2sc(=S)n(-c3ccccc3)c2N1 (centres undefined) | -0.24
CCCOc1ccc(C(O)(CCN2CCCCC2)C2CCCCC2)cc1 (centres undefined) | -0.81
Cc1ccc(C(=O)Nc2ccccc2C(=O)N2CCCCC2C)cc1 (centres undefined) | 1.5
CCOC(=O)C1CCN(S(=O)(=O)c2ccc3nc(-c4ccccc4)[nH]c3c2)CC1 | 0.26
CN(C)c1ccc(C=Nc2ccccc2C(=O)O)cc1[N+](=O)[O-] | -0.21
COC(=O)c1c(NC(=O)c2ccc(S(=O)(=O)N3CC(C)CC(C)C3)cc2)sc2c1CC(C)(C)NC2(C)C (centres undefined) | -0.34
COC(=O)c1ccc(-n2nnnc2SCC(=O)NC(C)(C)C)cc1 | 0.42
NC(=O)C1CC(=O)N(c2ccc(OCC(=O)Nc3cccc(C(F)(F)F)c3)cc2)C1 (centres undefined) | -0.54
CC1=C(c2ccccc2)[N+](=O)C(C)(c2ccc(Cl)cc2)N1[O-] (centres undefined) | -0.09
CC12CC3CC(C1)CC(NC(=O)c1ccc4ccccc4n1)(C3)C2 | -0.25
COc1ccc(OC)c(NC(=O)c2cc3c(=O)n4ccccc4nc3s2)c1 | -1.1
CCCSc1nc2c(c(=O)[nH]c(=O)n2C)n1Cc1ccc(Cl)cc1 | -1.05
O=[N+]([O-])c1ccc(-c2csc(N3CCOCC3)n2)cc1 | -0.37
COc1ccc(C2C(C(=O)Nc3cc(C)c(Cl)cc3OC)CCC(=O)N2c2ccc(OC)cc2)cc1 (centres undefined) | -0.39

The list continues:
structure | Measles inh
CSc1cccc(NS(=O)(=O)c2cccnc2)c1 | 1.6
CCC12CN3CC(CC)(CN(C1)C3c1ccc(OC(C)C)cc1)C2=O (centres undefined) | -0.46
COc1cccc(C(=O)NC2(C(F)(F)F)NC(=O)N(CC(C)C)C2=O)c1 (centres undefined) | -0.59
Cc1nc2nc(=S)[nH]n2c(C)c1Cc1ccccc1F | -0.51
CCOC(=O)CC(=O)CSc1nc2ccccc2c(=O)n1C1CCCCC1 | 1.31
COc1cc2c(C(=O)N(C)c3ccccc3C)cn(C)c(=O)c2cc1OC | 0.27
O=C(NCc1ccccn1)c1cc(-c2ccc(Cl)cc2)nc2ccccc12 | 0.35
Cc1ccc(Nc2nnc(C(C)(C)C)c(=O)[nH]2)cc1 | -0.8
CCOC(=O)c1cc2c(=O)n3cccc(C)c3nc2n(CC2CCCO2)c1=N (centres undefined) | 0.58
Cc1nnc(SCC(=O)Nc2sc3c(c2C#N)CCCC3)s1 | -0.13
c1ccc2c(c1)nc1sc3c(n12)CCCC3 | -0.84
CCOC(=O)c1c(-c2ccccc2)csc1NC(=O)CN1C(=O)c2ccccc2C1=O | -0.17
Oc1sc(-c2ccccc2)cc1C=NCCN=Cc1cc(-c2ccccc2)sc1O | -0.04
COC(=O)c1ccc(C2N(Cc3ccc(F)cc3)CCCN2Cc2ccc(F)cc2)cc1 | 0.53
CCOc1ccc(C(=O)Nc2ccc(NC(=O)c3ccc(C(C)(C)C)cc3)cc2)cc1Cl | 0.5
CCCCCc1ccc(-c2ccc(C(=O)O)cc2)cc1 | -0.31
COc1ccc2nc3oc(C(=O)NCc4cccs4)cc3cc2c1 | 0.45
O=C1c2ccccc2-c2ccc(Br)c3cccc1c23 | -0.39
Oc1ccc(Br)cc1C1Nc2cccc3cccc(c23)N1 | -0.48
